Compound activity (PubChem)
INS promoter inh: inhibitors of insulin promoter-driven GFP, primary screen, imaging, TRM-6 cells (human fetal islet line), eGFP reporter, cell count; reporter expression induced with tamoxifen; inhibition, % at 2 µM; 130,000 tested, 0.9% active;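 active = inhibition above the mean plus 3 SD, with well images judged a real hit on visual review, cut at about 60% in these data, passing the limit was not always enough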
HSV augment: enhancers of HSV replication in host cells, fold increase, host cell viability. 220,000 tested, 0.005% active. maximum fold increase. AID 1956, 2009. HSV replication augmentation in cells;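 active = peak rise of 1.5-fold or more in the series; tested in PC3 cells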;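 note: first round at 10 µM; read as green reporter fluorescence; hits show the peak of a series up to 25 µM; 1 = signal of infected wells without compound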
GALR2 agonist: GALR2 receptor agonists, primary screen, cell-based; Galanin receptor type 2 (Homo sapiens), O43603; activation, %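 (tested at 5 µM)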; GALR2-expressing cells, agonist activation read-out; AID 803, 2007; 140,000 tested, 0.48% active;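 active = above mean plus 3 SD of all compounds, about 5% in these data, not always enough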;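 note: 0% = vehicle buffer wells and 100% = reference agonist at full effect; tested in CHO reporter cells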
RGS16-Gao HTS: modulators of RGS16 binding to Galphao, primary screen, biochemical, human proteins, multiplexed bead flow cytometry; Regulator of G-protein signaling 16 (Homo sapiens) + Guanine nucleotide-binding protein …; bead-based flow cytometry RGS16-Galphao binding, fluorescence; actives lie on both sides; 220,000 tested, 0.38% active; binding response (% of control), % at 10 µM;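 active = below 25% or above 175%, edge rows of some plates excepted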;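 note: Galphao activated by GDP with aluminum fluoride before binding; 100% = wells without compound and 0% = beads without RGS; some results beyond the cut were filed as inactive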
PKD1 kinase inh: inhibitors of human PKD1 kinase, biochemical, fluorescence polarization; 200,000 tested, 0.056% active; Serine/threonine-protein kinase D1 (Homo sapiens), Q15139; AID 797, 2007; PKD1 kinase fluorescence polarization assay; inhibition, %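 (about 10 µM by stock and volumes)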;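 active = inhibition of 50% or more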;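 note: controls were vehicle for no effect and a reference inhibitor for full effect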
Target sequence (Q15139 whole entry, looked up): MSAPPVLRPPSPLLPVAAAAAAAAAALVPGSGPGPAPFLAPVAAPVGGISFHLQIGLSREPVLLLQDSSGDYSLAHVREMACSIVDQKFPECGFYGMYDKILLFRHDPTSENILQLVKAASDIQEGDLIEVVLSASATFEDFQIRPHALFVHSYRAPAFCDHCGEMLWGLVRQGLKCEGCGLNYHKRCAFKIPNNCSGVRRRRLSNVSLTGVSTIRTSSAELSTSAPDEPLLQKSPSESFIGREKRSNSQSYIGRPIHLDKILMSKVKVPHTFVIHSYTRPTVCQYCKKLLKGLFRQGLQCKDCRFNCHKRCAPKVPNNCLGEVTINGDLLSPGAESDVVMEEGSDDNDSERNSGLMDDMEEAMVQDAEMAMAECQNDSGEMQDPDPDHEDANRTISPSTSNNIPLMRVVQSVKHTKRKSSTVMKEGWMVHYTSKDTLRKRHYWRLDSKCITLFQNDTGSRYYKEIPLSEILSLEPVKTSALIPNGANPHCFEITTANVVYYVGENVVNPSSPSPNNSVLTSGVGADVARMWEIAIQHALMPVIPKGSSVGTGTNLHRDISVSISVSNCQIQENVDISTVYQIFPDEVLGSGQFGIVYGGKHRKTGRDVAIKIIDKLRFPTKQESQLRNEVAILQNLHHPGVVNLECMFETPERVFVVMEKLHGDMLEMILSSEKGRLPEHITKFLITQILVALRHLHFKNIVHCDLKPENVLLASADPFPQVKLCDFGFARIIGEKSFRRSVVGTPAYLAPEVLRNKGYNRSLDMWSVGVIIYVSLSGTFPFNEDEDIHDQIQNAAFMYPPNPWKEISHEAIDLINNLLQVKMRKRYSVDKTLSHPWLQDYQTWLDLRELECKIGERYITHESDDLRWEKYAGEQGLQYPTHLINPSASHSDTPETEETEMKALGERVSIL
INS promoter inh cell count: second read-out of INS promoter inh, no call of its own (marks repeat the call); normalized cell count, %; measured here: cell count, toxicity; reference of the scale not given here;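 cells exposed to compound for 48 h; stained nuclei by imaging scaled within each plate; lower means fewer cells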
HSV augment primary fold: further read-out of HSV augment, marked with its call; fold increase; compound at 10 µM; measured here: primary screen fold increase 10 uM; tested in PC3 cells;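 GFP signal in the first replicate; 1 = infected wells without compound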
* = called active by the depositor; i = inactive; nt = not tested or not shown; & = joins results of further samples.

SMILES	RGS16-Gao HTS	INS promoter inh	GALR2 agonist	HSV augment	PKD1 kinase inh	INS promoter inh cell count	HSV augment primary fold
CN(C)c1ccc(-c2noc(C3CCN(C(=O)Nc4ccc(Cl)cc4)CC3)n2)cc1	101	nt	nt	i	nt	nt	0.86
O=C(Nc1ccccc1)Nc1ccccn1	104&106	33	-0.8	i	-4	101	1&1.1
O=C(CN1C(=O)/C(=C\C=C\c2ccccc2)SC1=S)Nc1ccc(F)cc1	110	-11	0.5	i	-10	95	0.95
Cc1ccccc1C(=O)NNC(=O)CCC(=O)Nc1cccc(Cl)c1C	104	-37	-0.4	i	-8	88	0.93
COC(=O)c1ccc(NC(=O)CN(c2ccc(C)cc2)S(=O)(=O)c2c(C)nn(C)c2C)cc1	102	20	-0.5	i	-1	112	0.96
Cc1ccc(-n2nnc3ccccc3c2=O)cc1C	102	12	-0.9	i	-7	98	0.9
Nc1ccc2nc3c(=O)[nH]c(=S)[nH]c3nc2c1	84	nt	nt	i	nt	nt	1.2
COc1cccc(NC(=O)C(OC(=O)c2ccccc2NS(=O)(=O)c2cccs2)c2ccccc2)c1 (centres undefined)	103	nt	-0.7	i	-4	nt	0.89
CSc1ccc(C2C(C#N)=C(N)Oc3cc4c(cc32)OCO4)cc1 (centres undefined)	106	-12	0.0	i	-4	102	0.68
CC1CN(c2ccc(NC(=S)Nc3ccc(N4CC(C)OC(C)C4)cc3)cc2)CC(C)O1 (centres undefined)	100	nt	nt	i	nt	nt	1
COc1cc(OC)c(S(=O)(=O)Nc2ccc(C(=O)N3CCCC3)cc2)cc1NC(C)=O	99	12	nt	i	6	97	1
CC(=O)Nc1cc(C(=O)OCC(=O)c2ccccc2)ccc1C	102	13	1.3	i	-12	105	1.1
O=C(NCc1cccs1)C(=O)NCC(c1ccco1)N1CCN(c2ccc(F)cc2)CC1 (centres undefined)	84	-178	nt	i	-12	73	0.96
Cc1c(Nc2nc(-c3ccccc3)cs2)c(=O)n(-c2ccccc2)n1C	97	nt	-1.0	i	-5	nt	0.9
O=C(NN1CCN(Cc2ccccc2)CC1)c1ccc(N2CCOCC2)c([N+](=O)[O-])c1	110	-21	nt	i	2	52	1
COc1ccccc1-c1c(-c2ccc(OCC(=O)NN)cc2O)n[nH]c1C(F)(F)F	107	-93	-0.4	i	-10	38	0.98
COCCCNC(=S)Nc1ccc(CC(=O)O)cc1	100	50	-0.3	i	-7	106	1.1
O=C1N(Cc2cccc(Cl)c2)C[C@@H]2C[C@@H](c3ccc4nonc4c3)N3CCC[C@@]123	77	-62	nt	i	1	83	1
CCOC(=O)C1CCN(CCC(=O)Nc2ccccc2Cl)CC1	105	30	-3.4	i	5	82	1.3
Nc1ccc(OC(=O)Nc2ccc(O)cc2)cc1	100	nt	nt	i	nt	nt	0.88
CCOC(=O)c1[nH]c2ccccc2c1NC(=O)c1ccc(S(=O)(=O)N2CCOCC2)cc1	nt	29	-0.7	nt	-3	98	nt
CCO[C@@H]1OC(C(=O)NCc2ccccc2)=C[C@H](c2coc3ccccc3c2=O)[C@H]1CCCO	100	nt	nt	nt	10	nt	nt
O=C(NCc1ccccc1)c1cccc(Br)n1	109	0	-1.4	i	-3	112	0.82
CCc1cccc(C)c1NC(=S)N(CCN(C)C)C(C)c1ccco1 (centres undefined)	92	nt	nt	i	nt	nt	0.83
O=C(O)c1cccnc1Cl	100	26	-0.1	i	-8	99	0.99
Cc1ccc(S(=O)(=O)Cc2ccccc2Cl)cc1	98	nt	-1.8	i	-1	nt	1
COc1ccc(/C=C/C(=O)NCCN2CCOCC2)cc1OC	130	-33	nt	i	2	95	0.83
Cc1cc(N2CC(=O)N(CCc3ccccc3)C(=O)C2)n2ncnc2n1	103	-17	-0.3	i	-2	62	0.96
CC(C)(C)NC(=O)c1ccc(Sc2ccccc2)c([N+](=O)[O-])c1	79	-175	-3.7	i	9	112	0.97
C/C(=N\NC(=O)CSc1nc2nc(C)cc(C)n2n1)c1ccccc1	99	-8	-0.8	i	0	133	0.79
Cc1cccc(OCCCC(=O)Nc2ccc(N3CCOCC3)cc2)c1	97	21	-1.9	i	1	169	1
NC(=O)NC(=O)CSc1nnc(-c2ccco2)n1Cc1ccccc1	100	23	-1.8	i	0	135	0.93
CC(C)[C@H](NC(=O)Cc1ccccc1)C(=O)OCc1cc(=O)n2c(n1)sc1ccccc12	96	nt	0.8	i	-15	nt	0.95
NC(N)=N/N=C/c1ccc(Cl)c(Cl)c1	119	nt	nt	i	nt	nt	0.6
CCOC(=O)C1=C(CC)Nc2ccccc2N=C1NC(=O)c1cc(S(=O)(=O)N(C)C)ccc1Cl	101	-18	-1.6	i	-3	59	0.99
CC(Sc1ccc(Cl)cc1)C(=O)NCC1CCCO1 (centres undefined)	102	36	-1.2	i	-5	112	1.1
CCN1CCCc2cc(CN(CCN3CCOCC3)C(=S)Nc3ccccc3C)ccc21	99	8	nt	i	3	114	0.98
CCOC(=O)CN(C)C(=O)CCc1nnc(-c2ccsc2)o1	104	-31	nt	i	2	117	0.99
CC(C)(C)c1ccc(S(=O)(=O)Nc2ccc(Cc3ccncc3)cc2)cc1	109	-15	0.4	i	-6	112	0.98
CC(C)OC(=O)c1c(NC(=O)c2cnn3c2NC(c2ccccc2)CC3C(F)F)sc2c1CCCC2 (centres undefined)	97	-43	0.0	nt	5	92	nt

Exported as labelled records: entries from further up
Cc1cc(N2CC(=O)N(CCc3ccccc3)C(=O)C2)n2ncnc2n1
  RGS16-Gao HTS = 103 | INS promoter inh = -17 | GALR2 agonist = -0.3 | HSV augment = i | PKD1 kinase inh = -2 | INS promoter inh cell count = 62 | HSV augment primary fold = 0.96

CCOC(=O)c1[nH]c2ccccc2c1NC(=O)c1ccc(S(=O)(=O)N2CCOCC2)cc1
  RGS16-Gao HTS = nt | INS promoter inh = 29 | GALR2 agonist = -0.7 | HSV augment = nt | PKD1 kinase inh = -3 | INS promoter inh cell count = 98 | HSV augment primary fold = nt

Next records.
SMILES	RGS16-Gao HTS	INS promoter inh	GALR2 agonist	HSV augment	PKD1 kinase inh	INS promoter inh cell count	HSV augment primary fold
CN(CC(=O)Nc1ccc(S(=O)(=O)N2CCCC2)cc1)Cc1ccc(Cl)c(Cl)c1	103	24	-0.2	i	-5	64	0.88
CC(C)Cn1c(N)c(C(=O)COC(=O)c2cccc(F)c2)c(=O)n(C)c1=O	101	27	nt	i	-7	102	0.96
OC(COc1ccccc1)CN1C2=NCCCN2c2ccccc21 (centres undefined)	88	-46	-2.7	i	-8	74	0.97
Cc1cc(C(=O)NC2CCCc3ccccc32)c(C)o1 (centres undefined)	95	0	-2.0	i	-1	58	0.99
Cc1cc(NC(=O)COC(=O)c2ccc(F)c(S(=O)(=O)N3CCOCC3)c2)no1	108	50	-2.4	i	-11	89	1
CCCC(=O)Nc1ccc(Cl)c(NC(=O)c2cccnc2)c1	81	-6	-1.7	i	-7	88	0.97
CCCC(=O)Nc1ccc(Cl)c(NC(=O)c2ccc([N+](=O)[O-])cc2Cl)c1	138	23	-0.5	i	-2	90	0.9
Cc1ccc(C)n1CCN1CCN(CC(=O)Nc2ccc(S(N)(=O)=O)cc2)CC1	101	-158	-1.1	i	-14	1	1
Cc1cc2ccc(C)c(C)c2nc1SCC(=O)c1cccs1	103	12	-2.6	i	-11	87	0.88
CSc1nnc2c3ccccc3n(Cc3ccccc3)c2n1	92	-35	-2.4	i	-2	92	0.93
CCc1cc2c(=O)c(-c3nc4ccccc4n3C)c(COCC(=O)O)oc2cc1O	114	23	-0.8	i	-2	123	0.84
Cc1[nH]nc(-c2ccc(O)cc2O)c1-c1ccc(Cl)cc1	95	3	-0.9	i	4	120	0.84
COc1cc(C)ccc1OCCOCCOc1c(C)cc(C)cc1Br	110	6	-2.5	i	-4	89	1.1
CN(C)Cc1cnc2ccc(Cl)cn12	104	32	-2.4	i	-8	124	0.88
CCCCOC(=O)c1ccc(N/C(=N\S(=O)(=O)c2ccccc2)c2ccccc2)cc1	97	6	-0.6	i	6	133	0.97
O=C(N/N=C/c1ccccc1C(=O)O)c1cc(-c2ccc3c4c(cccc24)CC3)n[nH]1	112	44	nt	i	-4	106	0.81
COc1cc(OC)cc(-c2nc(-c3ccccc3)no2)c1	97	-169	-2.0	i	0	86	1
O=c1[nH]c2ccc(NC(=S)NCCc3ccccc3)cc2[nH]1	101	nt	nt	i	nt	nt	0.82
Cc1cc(C)c(-c2cc(NC(=O)CSc3nncn3C)n(-c3ccccc3)n2)cc1C	97	nt	-0.3	i	-10	nt	1
O=C(OCC(=O)N1CCN(S(=O)(=O)c2ccccc2)CC1)c1ccc([N+](=O)[O-])o1	96	nt	nt	i	-1	nt	0.91
Cc1onc(-c2c(Cl)cccc2Cl)c1C(=O)NC(C)(C)CO	103	0	1.6	i	0	220	0.93
CC(C)NC(=O)c1cc2c(C(F)(F)F)nn(C)c2s1	89	29	-2.3	i	-4	140	1
CN(C)CCCNCCCNC(=O)/C(=N\O)c1ccccn1	94	-18	-2.1	i	2	134	0.9
O=C(Nc1cccc([N+](=O)[O-])c1)Nc1cccs1	99	56	nt	i	4	123	0.99
Cn1c(N2CCN(c3ccccn3)CC2)nc2c1c(=O)n(Cc1ccccc1Cl)c(=O)n2C	nt	30	-0.8	i	-7	105	0.91
CCn1cc(C2=NC(CCSC)CO2)c2ccccc21 (centres undefined)	113	25	nt	i	-1	73	0.92
Cc1sc2nc(CN3CCN(c4ccc(O)cc4)CC3)[nH]c(=O)c2c1C	99	nt	nt	i	nt	nt	0.95
Cc1ccc2nc(-c3ccc(NC(=O)COC(=O)c4cncc(Br)c4)cc3)sc2c1	104	nt	0.6	i	-12	nt	0.93
Cc1ccc(NNC(=O)c2c(F)cccc2Cl)cc1C	95	nt	nt	i	nt	nt	1
Cc1cccc(/C(N)=N/OC(=O)CCC2CCCCC2)c1	111	0	-1.5	nt	-16	101	nt
Clc1nc2ccccc2nc1-c1ccccc1	104	nt	nt	i	nt	nt	0.91
Nc1ccccc1SCC(=O)Nc1nccs1	100	nt	nt	i	-1	nt	0.97
COc1ccccc1NS(=O)(=O)c1ccc(S(=O)(=O)N2CCOCC2)cc1	97	20	nt	i	1	141	0.92
O=C(O)c1ccc(Cn2c(SCc3cc(=O)n4cc(Br)ccc4n3)nc3ccsc3c2=O)cc1	108	18	nt	i	-3	140	0.93
O=C(NCc1ccco1)/C(=C\c1cccs1)NC(=O)c1cccs1	101	-15	nt	i	-4	92	0.94
COC(=O)c1ccccc1SC(CC(=O)c1ccccc1)c1ccc(F)cc1 (centres undefined)	101	nt	nt	i	nt	nt	0.99
Cc1ccc(O)c(C2=NCCNC(C(F)(F)F)=C2)c1	101	-13	-3.3	i	-4	83	0.71
COc1ccc(OCCN2C(=O)NC(C)(c3ccc(C)cc3)C2=O)cc1 (centres undefined)	107	1	-1.5	i	-7	134	0.93
C=CCn1c(COc2cccc3ccc(C)nc23)nnc1SCC(=O)OC	100	19	-0.2	i	-2	116	1
C#CCOc1nc(Nc2cccc([N+](=O)[O-])c2)nc(OCC#C)n1	106	61	nt	i	4	162	0.78
CC(NC(=O)C(NC(=O)C1CCCN1C(=O)OC(C)(C)C)C(C)C)C(N)=O (centres undefined)	107	30	-1.5	i	-11	91	0.92
CCOC(=O)c1ccc(S(=O)(=O)N2CCN(C(=O)c3cc(=O)c4ccccc4o3)CC2)cc1	97	-26	nt	i	-6	85	0.86
COC(=O)c1sccc1NC(=O)c1cc(OC)c(OC)c(OC)c1	97	-3	-1.6	i	-7	96	0.74
COc1ccc(C(=O)C[n+]2cn(C(F)F)c3ccccc32)c(F)c1	109	nt	nt	i	7	nt	0.86
CC(=O)c1ccc(N2CCC(c3cc(-c4ccc(Cl)cc4)n[nH]3)CC2)c([N+](=O)[O-])c1	87	29	-3.8	i	1	134	0.88
COc1cccc(C(=O)Nc2sc3c(c2C#N)CCN(C(C)=O)C3)c1	93	-55	nt	i	-3	4	0.87
N/C(=N\OC(=O)c1cc(Cl)ccc1Cl)c1ccccn1	110	-14	-0.6	i	-11	127	0.93
CC/C(O)=C1\C(=O)CCCC1=NCc1nc2ccccc2[nH]1	98	-64	nt	i	-4	124	0.92
